Screening data as filed in PubChem BioAssay.
Ecoli rRNA inh: reduced GFP signal of wild-type E. coli, primary screen, bacterial rRNA inhibitor project, GFP/RFP fluorescence, OD600, single point | GFP signal change (wild-type ribosome), % (concentration not given with the values) | hit rate 1.6% among 350,000 | E. coli WT GFP vs humanized-ribosome RFP mutants, 24 h; active compounds read low; DMSO median 0, no signal -100;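 active = significant combined selectivity score with lowered wild-type GFP, culture density cut under 30%, mutant RFP and density less affected; inactive = any of these conditions unmet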; also: one replicate is shown; some compounds called inactive have numbers as strong as hits
FGF22 binding: binders of human FGF22 protein, primary screen, FGF22 synaptogenesis inhibitor project, biophysical, thermal shift, single point | recombinant FGF22 thermal shift, SYPRO orange fluorescence; percent of sucrose octasulfate shift, DMSO zero | calls only at 9.99 µM | Fibroblast growth factor 22 (Homo sapiens), Q9HCT0 | hit rate 1.5% among 340,000;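 active = melting point raised past a set limit in the mean and every replicate; three in four hits are not shown here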
Target sequence (Q9HCT0 whole entry, looked up): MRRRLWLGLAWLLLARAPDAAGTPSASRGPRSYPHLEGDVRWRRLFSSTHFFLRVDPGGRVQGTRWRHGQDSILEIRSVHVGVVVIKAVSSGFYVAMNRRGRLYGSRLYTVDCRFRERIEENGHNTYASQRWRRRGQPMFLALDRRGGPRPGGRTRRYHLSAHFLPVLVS
Ecoli rRNA inh OD600: recorded beside Ecoli rRNA inh, whose call it bears; OD600 change, %; measured here: OD600 growth;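 optical density of the mix in the first replicate; 0 = DMSO median and -100 = no signal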
Ecoli rRNA inh RFP: second read-out of Ecoli rRNA inh, no call of its own (marks repeat the call); RFP signal change, %; measured here: RFP humanized mutant strains;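 first replicate; 0 = DMSO median and -100 = no signal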
* = called active by the depositor; i = inactive; + = active, no number; & = joins results of further samples.

Results follow in this order: Ecoli rRNA inh | Ecoli rRNA inh RFP | Ecoli rRNA inh OD600 | FGF22 binding
C[C@@H]1CN([C@H](C)CO)C(=O)c2cc(NC(=O)Nc3ccc(C(F)(F)F)cc3)ccc2O[C@@H]1CN(C)C(=O)Nc1ccc(F)cc1
    1 | 0.6 | -9 | i
CNC[C@@H]1Oc2c(NC(=O)Nc3ccc4c(c3)OCO4)cccc2C(=O)N([C@H](C)CO)C[C@H]1C
    1 | -0.2 | 16 | i
C[C@H](CO)N1C[C@H](C)[C@H](CN(C)Cc2ccc(C(F)(F)F)cc2)Oc2ccc(NC(=O)C3CC3)cc2CC1=O
    1 | -3.7 | 1 | i
Cc1ccc(S(=O)(=O)Nc2ccc3c(c2)C(=O)N([C@H](C)CO)C[C@@H](C)[C@@H](CN(C)Cc2ccccc2)O3)cc1
    -3 | 5.1 | -8 | i
CC(C)CC#Cc1cnc2c(c1)C(=O)N([C@@H](C)CO)C[C@H](C)[C@@H](CN(C)Cc1ccccc1)O2
    3 | 7.6 | -4 | i
CCCN(C)C[C@H]1Oc2cc(/C=C/c3ccccc3)ccc2S(=O)(=O)N([C@@H](C)CO)C[C@H]1C
    1 | 8.1 | -1 | i
CCCNC(=O)C[C@@H]1CC[C@H]2[C@@H](COc3ccc(NC(=O)CCC)cc3C(=O)N2C)O1
    2 | -1.7 | 6 | i
COc1ccccc1CNC(=O)C[C@@H]1CC[C@@H]2[C@H](COC[C@@H](O)CN2C(=O)Nc2ccc(Cl)cc2)O1
    -56 | -20 | -74 | i
C[C@H](CO)N1C[C@H](C)[C@@H](CN(C)C(=O)Nc2cccc3ccccc23)Oc2ccc(NC(=O)Cc3ccccc3)cc2CC1=O
    1 | 1.7 | -5 | +
C[C@H]1CCCCO[C@@H](CN(C)Cc2ccncc2)[C@@H](C)CN([C@@H](C)CO)C(=O)c2cc(NS(=O)(=O)c3cn(C)cn3)ccc2O1
    3 | -2.0 | 4 | i
O=C(C[C@H]1C[C@@H]2c3cc(NC(=O)CC4CC4)ccc3O[C@@H]2[C@@H](CO)O1)NCC1CC1
    1 | -0.1 | 6 | i
CNC[C@H]1OCCCC[C@@H](C)Oc2ccc(NC(=O)Nc3ccccc3)cc2C(=O)N([C@H](C)CO)C[C@H]1C
    -1 | -2.7 | 10 | i
O=C(Cc1cccnc1)N1CC(=O)N2[C@H](CO)[C@H](c3ccc(C#CC4CCCCC4)cc3)[C@H]2C1
    2 | -3.0 | -5 | i
COc1ccc2c3c([nH]c2c1)[C@@H](CO)N(C(=O)C1CC1)CC31CN(Cc2nccs2)C1
    -2 | 0.5 | -2 | i
C/C=C/c1cnc2c(c1)C(=O)N([C@@H](C)CO)C[C@H](C)[C@@H](CN(C)C(=O)Nc1cccc(OC)c1)O2
    4 | -2.7 | 12 | i
C[C@H](CO)N1C[C@H](C)[C@H](CN(C)Cc2ccc(Cl)c(Cl)c2)Oc2ccc(NS(=O)(=O)c3ccc(F)cc3)cc2C1=O
    2 | 1.5 | -7 | i
C[C@@H]1CN([C@H](C)CO)C(=O)c2cc(-c3ccncc3)cnc2O[C@@H]1CN(C)C(=O)c1ccncc1
    2 | -2.9 | 3 | i
COc1ccc(S(=O)(=O)N(C)C[C@@H]2OCCCC[C@H](C)Oc3ccc(NC(=O)c4ccncc4)cc3C(=O)N([C@@H](C)CO)C[C@H]2C)cc1
    -5 | 3.4 | 2 | i
C[C@@H]1CCCCO[C@@H](CN(C)Cc2ccccc2)[C@@H](C)CN([C@@H](C)CO)C(=O)c2cc(N(C)C)ccc2O1
    3 | 1.4 | 4 | i
C[C@@H]1CCCCO[C@H](CN(C)S(=O)(=O)c2ccc(Cl)cc2)[C@H](C)CN([C@@H](C)CO)C(=O)c2cc(NS(=O)(=O)c3cn(C)cn3)ccc2O1
    -4 | 3.2 | -10 | i
C[C@@H]1CN([C@@H](C)CO)C(=O)c2cccc(NC(=O)NC3CCCCC3)c2O[C@H]1CN(C)Cc1ccc(C(=O)O)cc1
    -3 | 0.4 | 9 | i
CC(=O)Nc1ccc2c(c1)C(=O)N(C)[C@H]1CC[C@H](CC(=O)NCc3ccccc3Cl)O[C@H]1CO2
    -2 | -2.0 | 1 | i
C[C@@H](O)C#Cc1ccc([C@H]2[C@@H](CO)N3CCCCN(CC4CCOCC4)C[C@H]23)cc1
    8 | -2.7 | 18 | i
COc1ccc(CN(C)C[C@H]2OCCCC[C@@H](C)Oc3ccc(NC(=O)Nc4ccc5c(c4)OCO5)cc3C(=O)N([C@H](C)CO)C[C@@H]2C)cc1
    3 | -1.0 | 20 | i
CN1c2ccc(-c3cccc(F)c3)cc2[C@H]2[C@H](CCN2C(=O)Cc2ccccc2)[C@H]1CO
    -3 | 18 | -1 | i
COCC(=O)N1[C@@H](CO)[C@@H](c2ccccc2)C12CN(C(=O)c1ccc(F)cc1)C2
    1 | -2.0 | 4 | i
O=C(Cc1ccccn1)N[C@H]1CC[C@@H](CCNC(=O)c2cc(Cl)cc(Cl)c2)O[C@H]1CO
    -3 | 4.0 | -3 | i
COC(=O)C[C@@H]1CC[C@H]2[C@H](COc3ccc(NC(=O)Nc4c(C)noc4C)cc3C(=O)N2C)O1
    4 | -0.2 | 4 | i
Cc1noc(C)c1S(=O)(=O)N(C)C[C@@H]1Oc2ccc(NS(=O)(=O)c3ccccc3)cc2C(=O)N([C@H](C)CO)C[C@@H]1C
    1 | 3.0 | -1 | i
Cc1ccc(S(=O)(=O)N(C)C[C@H]2Oc3ccc(NC(=O)Nc4c(C)noc4C)cc3CC(=O)N([C@@H](C)CO)C[C@H]2C)cc1
    0 | -0.2 | 3 | i

Four compounds picked at random from those above, as already listed:
Results follow in this order: Ecoli rRNA inh | Ecoli rRNA inh RFP | Ecoli rRNA inh OD600 | FGF22 binding
C[C@@H]1CCCCO[C@@H](CN(C)Cc2ccccc2)[C@@H](C)CN([C@@H](C)CO)C(=O)c2cc(N(C)C)ccc2O1
    3 | 1.4 | 4 | i
Cc1ccc(S(=O)(=O)N(C)C[C@H]2Oc3ccc(NC(=O)Nc4c(C)noc4C)cc3CC(=O)N([C@@H](C)CO)C[C@H]2C)cc1
    0 | -0.2 | 3 | i
C[C@H](CO)N1C[C@H](C)[C@H](CN(C)Cc2ccc(C(F)(F)F)cc2)Oc2ccc(NC(=O)C3CC3)cc2CC1=O
    1 | -3.7 | 1 | i
CN1c2ccc(-c3cccc(F)c3)cc2[C@H]2[C@H](CCN2C(=O)Cc2ccccc2)[C@H]1CO
    -3 | 18 | -1 | i

Remaining list, next part
Results follow in this order: Ecoli rRNA inh | Ecoli rRNA inh RFP | Ecoli rRNA inh OD600 | FGF22 binding
COCC#Cc1ccc([C@@H]2[C@@H](CO)N3CCCCN(C(=O)NC4CCCC4)C[C@@H]23)cc1
    0 | 2.0 | 1 | i
COc1ccc(-c2cnc3c(c2)C(=O)N([C@@H](C)CO)C[C@@H](C)[C@@H](CN(C)C(=O)Cc2ccccn2)O3)cc1
    0 | 1.3 | 7 | i
C[C@@H]1CCCCO[C@H](CN(C)C(=O)Nc2cccc3ccccc23)[C@H](C)CN([C@@H](C)CO)C(=O)c2cc(NC(=O)CCC(F)(F)F)ccc2O1
    -1 | -0.7 | -9 | i
CO[C@H]1CN(C)C(=O)c2cc(NC(=O)c3ccc(F)cc3)ccc2OC[C@H](C)N(C)C[C@@H]1C
    -1 | 0.6 | -3 | i
COCC#Cc1cnc2c(c1)C(=O)N([C@H](C)CO)C[C@@H](C)[C@H](CN(C)C(=O)Cc1ccccc1)O2
    -2 | 0.3 | 10 | i
C[C@@H]1CCCCO[C@H](CN(C)C(=O)C2CCCCC2)[C@@H](C)CN([C@H](C)CO)C(=O)c2cc(NC(=O)Nc3ccc4c(c3)OCO4)ccc2O1
    3 | -0.6 | -1 | i
Cc1ccc(S(=O)(=O)N2CC[C@@H]3[C@@H](CO)N(C)c4ccc(-c5ccccc5F)cc4[C@@H]32)cc1
    3 | 3.5 | 7 | i
COc1ccc(CN(C)C[C@@H]2Oc3ccc(NC(=O)c4ccncc4)cc3CC(=O)N([C@@H](C)CO)C[C@@H]2C)cc1
    -2 | -0.1 | 5 | i
C[C@H](CO)N1C[C@H](C)[C@@H](CN(C)S(=O)(=O)c2ccccc2)OCc2ccccc2-c2ccccc2C1=O
    8 | 6.3 | -3 | i
COCCNC(=O)C[C@H]1CC[C@H]2[C@@H](COC[C@@H](O)CN2C(=O)c2cc(Cl)cc(Cl)c2)O1
    3 | -3.6 | 8 | i
CNC[C@H]1OCCCC[C@@H](C)Oc2ccc(NC(=O)Cc3ccccc3)cc2C(=O)N([C@H](C)CO)C[C@H]1C
    5 | -2.6 | 0 | i
CN1C(=O)c2cc(NC(=O)c3cnccn3)ccc2OC[C@H]2O[C@H](CC(=O)NCC3CCCCC3)CC[C@@H]21
    -1 | -1.9 | 5 | i
C[C@H](CO)N1C[C@H](C)[C@H](CN(C)Cc2ccc(-c3ccccc3)cc2)Oc2ccc(NC(=O)Nc3ccccc3)cc2C1=O
    4 | 6.9 | -9 | i
C[C@H](CO)N1C[C@H](C)[C@H](CN(C)C(=O)Cc2ccccc2)OCCCC[C@H](C)Oc2ccc(NS(=O)(=O)c3ccc(Cl)cc3)cc2C1=O
    -4 | -0.4 | -5 | i
CC(C)NC(=O)Nc1ccc2c(c1)C(=O)N([C@H](C)CO)C[C@H](C)[C@H](CN(C)C(=O)NC(C)C)OCCCC[C@H](C)O2
    -1 | -2.8 | 0 | i
C[C@H](NC(=O)C[C@H]1C=C[C@@H](NC(=O)C2CCOCC2)[C@@H](CO)O1)c1ccccc1
    -1 | 0.8 | -4 | i
COc1cccc(-c2ccc(C3[C@H]4CNC[C@@H]3N4C(=O)Nc3ccccc3F)cc2)c1 (stereo partly drawn)
    4&1 | 2.4&-0.6 | -5&5 | i
COc1ccc(C#Cc2cnc3c(c2)C(=O)N([C@H](C)CO)C[C@H](C)[C@H](CN(C)C(=O)NC(C)C)O3)cc1OC
    0 | 0.0 | 10 | i
CO[C@@H]1CC[C@H]2CCOc3c(C#N)cccc3C(=O)N(C)C[C@@H](c3ccccc3)CC(=O)N(C)C[C@H]1O2
    4 | 4.3 | 1 | i
CC(C)NC(=O)NCC[C@H]1CC[C@H](NC(=O)c2ccc(F)cc2)[C@@H](CO)O1
    4 | 0.2 | 7 | i
C[C@@H]1CN([C@@H](C)CO)C(=O)c2cccc(NC(=O)Nc3ccc(F)cc3)c2O[C@@H]1CN(C)Cc1ccccc1
    -1 | -1.9 | 4 | i
C[C@@H]1CN([C@@H](C)CO)C(=O)CCCn2nncc2CO[C@H]1CN(C)Cc1ccccc1C(=O)O
    5 | -0.3 | 8 | +
Cc1noc(C)c1S(=O)(=O)Nc1ccc2c(c1)C(=O)N([C@@H](C)CO)C[C@H](C)[C@H](CN(C)S(=O)(=O)c1c(C)noc1C)OCCCC[C@@H](C)O2
    2 | -1.5 | 11 | i
C[C@H](CO)N1C[C@H](C)[C@@H](CN(C)C(=O)c2cnccn2)Oc2ncc(-c3cccc(F)c3)cc2C1=O
    1 | -1.5 | 3 | i
C[C@H](CO)N1C[C@H](C)[C@@H](CN(C)S(=O)(=O)c2cccc(F)c2)Oc2ncc(-c3cccc(C(=O)N(C)C)c3)cc2C1=O
    -16 | -2.2 | 0 | i
C[C@H]1CN([C@@H](C)CO)C(=O)c2cc(NS(=O)(=O)c3ccc(F)cc3)ccc2O[C@@H]1CN(C)Cc1ccc(C(=O)Nc2ccccc2N)cc1
    -2 | -0.5 | -2 | i
C[C@@H]1CN([C@H](C)CO)C(=O)c2cccc(NS(=O)(=O)c3ccc(F)cc3)c2O[C@@H]1CN(C)S(=O)(=O)c1ccc(Cl)cc1
    -2 | -1.8 | -16 | i
Fc1ccc(CN2CCN(c3ncc(Cc4ccccc4)cn3)CC2)c(Cl)c1
    -17 | -2.4 | -8 | i
C[C@H]1CN([C@@H](C)CO)C(=O)c2cc(C#Cc3ccccc3F)cnc2O[C@H]1CN(C)C(=O)C1CCC1
    -1 | 3.2 | -2 | i
C/C=C/c1cnc2c(c1)C(=O)N([C@@H](C)CO)C[C@@H](C)[C@@H](CN(C)CC1CCOCC1)O2
    0 | -4.2 | 4 | i

Additional records
Results follow in this order: Ecoli rRNA inh | Ecoli rRNA inh RFP | Ecoli rRNA inh OD600 | FGF22 binding
C[C@@H]1CN([C@@H](C)CO)C(=O)Cc2cc(NC(=O)Nc3ccc(F)cc3)ccc2O[C@H]1CN(C)C(=O)Nc1ccc(F)cc1
    -2 | -0.8 | -12 | i
CO[C@@H]1CN(C)C(=O)c2cc(NC(=O)NC(C)C)ccc2OC[C@H](C)N(CC2CC2)C[C@H]1C
    -5 | 0.6 | -3 | i
O=C(NCC1CC1)[C@H]1[C@H](CO)[C@H]2Cn3c(ccc(-c4ccccc4F)c3=O)[C@@H]1N2Cc1ccncc1
    -1 | 1.6 | 7 | i
Cc1ccc(S(=O)(=O)N(C)C[C@H]2Oc3ccc(NC(=O)Cn4cnnn4)cc3CC(=O)N([C@H](C)CO)C[C@H]2C)cc1
    4 | 0.2 | 21 | i
C[C@@H]1CN([C@@H](C)CO)C(=O)Cc2cc(NC(=O)C3CC3)ccc2O[C@H]1CN(C)C
    0 | -0.7 | 4 | i
COc1cccc(NC(=O)N[C@H]2C=C[C@@H](CC(=O)Nc3ccccc3)O[C@@H]2CO)c1
    -2 | -1.7 | 0 | i
C[C@@H]1CN([C@@H](C)CO)C(=O)c2cccc(NC(=O)Nc3ccc(C(F)(F)F)cc3)c2O[C@H]1CN(C)S(=O)(=O)c1ccc(Cl)cc1
    4 | 1.0 | 3 | i

The list is partial (hit frequency here may not be typical).
